# Assay outcomes from PubChem BioAssay.
# Vif TR-FRET: inhibitors of Vif binding to APOBEC3G peptide, primary screen, biochemical, TR-FRET, GST-Vif 1-94, biotin-A3G peptide, dose response retest (AID 1117319) | inhibition, %; hits with a dose series show IC50 in µM | TR-FRET GST-Vif / biotin-A3G peptide binding; higher % means a stronger effect; test concentration not given here; strong numbers were not always called active | 0.57% of 260,000 active;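 active means above the screen mean plus three standard deviations and confirmed in dose response; inconclusive means results disagree or hit not tested in dose response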;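 further: Vif residues 1-94 fused to GST binding biotinylated APOBEC3G peptide 110-148; 0% = full assay without inhibitor and 100% = GST in place of GST-Vif; retest series ran down from 100 µM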
# T cruzi repl: blocks replication of Trypanosoma cruzi. inhibition, % (concentration not given with the values). AID 1885. T. cruzi beta-gal in NIH3T3, luminescence, 90 h. 1.4% of 300,000 active;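 active means mean inhibition across valid replicates above about 55%, limit read from the data; inconclusive means mean below that limit but half or more replicates reach it; inactive means mean below it, under half of replicates reach it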;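 further: signal also drops with host cell toxicity which is not excluded here; 0% = plate median of DMSO wells and 100% = zero luminescence signal; higher percent means less beta-gal luminescence so fewer parasites; stock transfer was 50 nL into about 50 µL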
# Bfl-1 A1 inh: inhibitors of the anti-apoptotic protein A1, read as caspase activation. AID 2462. caspase activation, % (test concentration not listed). 0.066% of 330,000 active. MEF A1-2A-BIM cells, Caspase-Glo 3/7 luminescence, 3 h; percent of clofoctol response, vehicle zero;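 active means over half of replicate activation scores above 10%, or exactly half above 10 with the replicate mean above 10; inconclusive means replicate mean below 10 yet half the replicates above 10; inactive means over half of replicates below 10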;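 further: wells of about 30 µL received 50 nL stock; many hits fall short of the cut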
# Beta apoptosis: blocks beta cell apoptosis. INS-1E cytokine-induced death, ATP luminescence, 48 h; percent of positive-control rescue, neutral wells zero. AID 435005. protection from apoptosis, % (concentration not given with the values). 0.8% of 300,000 active;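 active means all replicates at 75% or more, or half of them and the mean; inconclusive means half reach 75% but not the mean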;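 further: 0% = cytokine-treated negative control wells and 100% = positive control rescue; higher means more ATP so stronger rescue from cytokine killing; wells of about 40 µL received 100 nL stock; the first replicate is given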
# RanGTP-Impb inh: inhibitors of RanGTP-importin-beta interaction, primary screen, biochemical, FRET, CFP-Ran, YFP-importin-beta, homogeneous. cell-free CFP-Ran/YFP-importin-beta FRET ratio. inhibition, % (test concentration not listed). 1.1% of 300,000 active. AID 2216;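 active means most replicates above 15%; inconclusive means exactly half above 15%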;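 further: 0% = DMSO wells and 100% = Ran loaded with GDP instead of GTP; wells of about 40 µL received 100 nL stock; the first replicate is given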
# Ecoli rRNA inh: selective bacterial rRNA inhibition in E. coli. 1.6% of 350,000 active. AID 720706. GFP signal change (wild-type ribosome), % (no concentration beside the values). E. coli WT GFP vs humanized-ribosome RFP mutants, fluorescence, 24 h; stronger effect = lower value; DMSO median 0, no signal -100;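 active means significant combined selectivity score with lowered wild-type GFP, culture density cut under 30%, mutant RFP and density less affected; inactive means any of these conditions unmet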; further: one replicate is shown; some compounds called inactive have numbers as strong as hits
# MLL AF4-AF9 inh: inhibitors of human MLL-AF4/AF9 interaction | P42568 | AlphaScreen, biotin-AF4 peptide binding to FLAG-AF9 | inhibition, % at 10 µM | 0.47% of 350,000 active | AID 651704;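 active means every replicate reaching a set inhibition limit, whatever the replicate mean, cut at about 25% in these data; inconclusive means mean inhibition reaches that limit but some replicates miss it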;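 further: 0% = plate neutral control median and 100% = total signal loss; the record names both 10 and 1 µM as test concentration; the first replicate is given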
# Target sequence (P42568 whole entry, looked up): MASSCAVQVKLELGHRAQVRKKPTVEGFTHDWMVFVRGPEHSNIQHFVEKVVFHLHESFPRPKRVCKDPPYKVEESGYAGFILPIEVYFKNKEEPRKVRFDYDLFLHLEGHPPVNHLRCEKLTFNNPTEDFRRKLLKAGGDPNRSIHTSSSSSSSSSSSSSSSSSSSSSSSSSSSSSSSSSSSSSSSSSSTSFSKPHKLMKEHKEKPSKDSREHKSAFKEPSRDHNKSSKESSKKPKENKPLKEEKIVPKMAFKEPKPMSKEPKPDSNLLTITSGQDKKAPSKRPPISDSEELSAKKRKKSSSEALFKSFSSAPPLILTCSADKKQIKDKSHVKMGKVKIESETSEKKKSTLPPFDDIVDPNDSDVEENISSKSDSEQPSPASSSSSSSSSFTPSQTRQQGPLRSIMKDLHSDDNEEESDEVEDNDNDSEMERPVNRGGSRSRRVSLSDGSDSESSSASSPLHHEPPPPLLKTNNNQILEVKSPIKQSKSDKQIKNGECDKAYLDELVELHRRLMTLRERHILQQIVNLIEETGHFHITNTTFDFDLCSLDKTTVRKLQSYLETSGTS
# Calb FLC: affects C. albicans growth with fluconazole. C. albicans CaCi-2 (fluconazole-resistant clinical isolate) + fluconazole, Alamar Blue growth, 48 h. growth inhibition, % (test concentration not listed). 0.57% of 300,000 active. AID 1979;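 active means most replicates above 75%; inconclusive means exactly half above 75%; inactive means most below 75%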;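 further: all wells also contain fluconazole at 8 µg/ml as a sub-toxic cotreatment; 0% = median of DMSO wells and 100% = median of geldanamycin control wells; wells of about 8 µL received 7.5 nL stock; the first replicate is given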
# Ecoli rRNA inh OD600: further read-out of Ecoli rRNA inh, marked with its call; OD600 change, %; measured here: OD600 growth;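 optical density of the mix in the first replicate; 0 = DMSO median and -100 = no signal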
# Ecoli rRNA inh RFP: further read-out of Ecoli rRNA inh, marked with its call; RFP signal change, %; measured here: RFP humanized mutant strains;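 first replicate; 0 = DMSO median and -100 = no signal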
# Active calls of the source: *; ? = inconclusive; . = no result given. This is a subset, so the mix of outcomes need not match the whole.
SMILES,Vif TR-FRET,T cruzi repl,Bfl-1 A1 inh,Beta apoptosis,RanGTP-Impb inh,Ecoli rRNA inh,Ecoli rRNA inh OD600,Ecoli rRNA inh RFP,MLL AF4-AF9 inh,Calb FLC
O=C(Nc1ccc(Cl)cc1)c1cc2nc(-c3ccco3)cc(C(F)(F)F)n2n1,13.9%,-13.9,-1.1,5.1,4.4,.,.,.,.,-0.5
COc1ccc(C(=O)NC(C(=O)N2CCc3ccccc32)C(C)C)cc1 (stereo unspecified),1.1%,-2.8,-0.3,-1.5,3.9,.,.,.,.,-18.8
C=C(c1ccccc1C)[n+]1ccccc1,0.9%,-5.7,0.2,2.7,?,0.5,2.9,-3.0,-3.3,-5.5
CCn1nc(C)c(/C=N/NC(=O)Cn2nnnc2N)c1C,?,-6.1,0.3,-0.2,-1.5,4.0,-1.1,1.2,-3.3,3.0
CC(C)(C)c1ccc(N=C2SCC(=O)N2Cc2cccs2)cc1,-7.8%,5.8,-0.3,.,1.7,5.9,5.1,-1.7,-2.0,-8.3
Cc1nnc(SCC(=O)Nc2nsc(-c3ccccc3)n2)s1,-9.4%,-16.1,-0.8,-12.6,3.4,.,.,.,.,3.3
COC(=O)C(c1cc(OC)c(O)c(OC)c1)(N1CCNC(C)C1)C(F)(F)F (stereo unspecified),-7.3%,2.4,0.0,-2.4,6.9,.,.,.,.,-15.2
O=C(CSc1nc2cc(Cl)ccc2s1)NCc1ccc2c(c1)OCO2,.,0.3,-0.4,3.2,?,.,.,.,.,-23.8
O=C(/C=C/c1ccc(F)cc1)NCCCn1ccnc1,-1.6%,-2.9,1.8,-1.3,1.2,13.2,16.1,0.8,-0.9,2.2
COc1ccc(Oc2cc(F)nc(N)n2)cc1,1.6%,-9.6,-0.4,-3.1,-0.4,11.9,12.9,-8.7,3.0,-3.8
CCCCn1ccc(O)c(Cc2ccc(F)cc2)c1=O,3.4%,-12.6,0.0,2.7,3.5,.,.,.,.,-4.3
O=C(NC(=S)Nc1cccc(Cl)c1)c1cncc(Br)c1,.,19.6,-0.6,-5.3,-1.7,.,.,.,-0.9,-20.1
CCCc1cnc(NCCNCC(O)COc2ccc(Cl)c(Cl)c2)nc1 (stereo unspecified),.,36.6,0.5,22.2,0.8,-55.1,-79.4,-11.7,2.0,2.9
COc1cc(CC(=O)NCc2ccco2)cc(OC)c1OC,3.8%,-7.2,0.2,-5.0,0.8,.,.,.,.,3.8
Cc1c(Cl)c([N+](=O)[O-])nn1CC(=O)Nc1ccc2c(c1)OCO2,-1.9%,14.4,0.6,-4.7,-1.4,12.2,5.5,-0.4,3.1,-4.3
COc1ccc(CNC(=S)Nc2ccc(F)c(Cl)c2)cc1,3.6%,-8.8,0.4,-8.2,-2.9,-38.3,-69.0,-5.8,-0.6,-7.8
O=c1[nH]cnc2c1N1CCC2CC1,-2.9%,-15.5,0.1,-7.2,0.0,.,.,.,.,-7.7
CCCN1CCN(c2ncnc3scc(C4COc5ccccc5O4)c23)CC1 (stereo unspecified),.,22.8,-0.1,6.5,0.2,-5.6,-10.4,-3.3,9.2,-29.9
O=C(CCCCCNC(=O)N1CCn2c1nc1ccccc12)NCc1ccc(F)cc1,.,3.3,-0.2,4.5,4.4,-8.2,-10.2,-2.6,-0.7,-9.1
O=C(Cn1nc(-c2ccc3c(c2)OCCO3)ccc1=O)Nc1cccc(NC(=O)c2ccccn2)c1,6.2%,3.0,1.3,-2.8,0.1,.,.,.,.,0.0
CC1=NN(c2nc(-c3ccc(F)cc3)cs2)C(=O)C1,-3.0%,7.0,1.2,-9.2,4.4,.,.,.,.,27.8
COc1ccc(CNC(=O)COC(=O)CO/N=C(\C)c2ccc3c(c2)OCO3)cc1,-1.8%,-7.4,1.9,-1.2,1.0,8.0,8.3,0.8,-16.7,-3.7
Cc1ccc(CNC(=O)C2CC(c3ccc([N+](=O)[O-])cc3)=NO2)cc1 (stereo unspecified),-1.0%,-6.0,-1.0,.,0.7,9.7,5.5,-0.8,-1.6,-17.4
O=C1c2ccccc2C(=O)N1c1cccc2ccccc12,.,-4.5,2.3,-10.2,-0.1,-17.9,-14.9,-5.0,1.7,6.4
COc1ccc(S(=O)(=O)N(CC(=O)O)c2ccccc2)cc1,0.3%,-6.4,0.7,6.0,5.5,14.1,7.7,-0.2,0.8,-3.7
SMILES,Vif TR-FRET,T cruzi repl,Bfl-1 A1 inh,Beta apoptosis,RanGTP-Impb inh,Ecoli rRNA inh,Ecoli rRNA inh OD600,Ecoli rRNA inh RFP,MLL AF4-AF9 inh,Calb FLC
CC(=O)c1sc2c(c1OC(=O)c1ccc(Cl)cc1Cl)c(=O)n(-c1ccccc1)c(=S)n2-c1ccccc1,-27.5%,7.5,-0.6,-0.9,-1.3,-1.3,-3.3,46.2,0.6,-7.6
COc1ccc(N=C2S/C(=C\c3cccs3)C(=O)N2CC(C)C)cc1,-3.2%,26.7,0.6,10.4,-3.9,.,.,.,.,-2.2
Cc1nc(SCC(=O)c2ccc(F)cc2)n[nH]1,22.8%,-13.4,0.8,.,-2.4,.,.,.,.,-11.4
Cc1ccc(C)c(NC(=O)Cn2nc(C)c3ccccc3c2=O)c1,-11.3%,-13.4,-6.6,-1.7,-4.1,.,.,.,.,-7.0
COC(=O)C1=C(C)NC2=C(C(=O)CC(C)(C)C2)C1c1cnn(C)c1C (stereo unspecified),-8.5%,-4.4,0.7,-0.1,2.5,7.2,4.2,1.0,1.4,4.4
C=CCC[C@@H](Cc1ccc(F)cc1)C(=O)OC[C@@H]1CCCN1C(=O)[C@@H](CC=C)CC(=O)N(CCO)Cc1ccccc1,.,.,-1.9,-2.1,.,10.0,6.1,5.6,-4.6,.
Cc1ccc(-c2csc(N3C(=N)SCC3=O)n2)cc1,-1.2%,-6.2,-7.0,-1.9,-0.2,1.5,11.3,2.2,-2.6,-3.8
O=C(O)/C=C\c1cc2c(cc1[N+](=O)[O-])OCO2,11.3%,-7.4,0.0,-7.6,4.7,7.2,0.7,-5.2,-6.0,9.2
COc1ccc2c(c1)OC[C@H]1[C@H]2N2C(=O)CN(CC3CCCO3)C(=O)[C@@]2(C)[C@H]1c1ccccc1 (stereo partly specified),.,.,0.6,-5.7,.,-1.0,-6.9,-1.4,0.0,.
CCCOc1cccc(C2/C(=C(/O)c3ccc(OC)cc3)C(=O)C(=O)N2CCN(C)C)c1 (stereo unspecified),-7.2%,-3.5,-0.3,5.4,-3.3,.,.,.,.,8.1
COC(=O)CN1C(=O)C(C)(C)Oc2ccc(C(=O)Nc3ccccc3F)cc21,.,0.1,-0.7,-5.6,1.1,0.8,-4.8,2.2,-0.9,7.2
COc1ccccc1NC(=S)N1CCCCCC1,-0.4%,-7.4,0.1,-10.1,-0.3,3.5,6.9,1.4,-1.0,-4.5
Cc1[nH]n(-c2ccccc2)c(=O)c1C(c1cccc([N+](=O)[O-])c1)c1c(C)[nH]n(-c2ccccc2)c1=O,?,-0.1,0.7,2.0,-0.4,-45.5*,-7.7*,-7.9*,13.5,-8.9
COc1ccc(CC(=O)Nc2ccc(S(=O)(=O)N3CCCCC3)cc2)cc1OC,.,3.1,-0.6,6.9,-1.8,-3.0,-10.5,8.6,0.9,-5.3
Cc1nc(-c2ccccc2)sc1C1(C)CC(c2cccc(F)c2)=NO1 (stereo unspecified),.,-7.7,0.5,1.9,-6.5,-6.0,-2.9,-2.4,3.1,-6.4
Cc1ccc(S(=O)(=O)NCC(=O)N2CCCCC2)cc1,-3.6%,-16.2,0.2,1.7,2.7,2.6,9.5,-3.6,2.5,-7.1
O=C(O)CNC(=O)CC12CC3CC(CC(C3)C1)C2,4.8%,5.1,-0.6,1.3,3.8,.,.,.,.,-4.1
NNC(=O)Cc1csc(-c2ccccc2)n1,25.3%,5.0,-0.1,-5.7,1.5,-27.9*,-0.5*,4.6*,-3.3,-15.0
COc1ccccc1C(CNC(=O)c1ccc(NS(=O)(=O)c2ccc(F)c(C)c2)cc1)N(C)C (stereo unspecified),.,14.2,0.8,1.1,1.9,4.4,-2.6,0.5,-0.3,-13.6
Cc1cccc(C)c1OCC(=O)NCc1nnc(SCC(=O)NC2CCCCC2)n1C,-0.4%,2.3,-0.8,1.3,0.5,.,.,.,.,-6.8
CC(=O)c1c(OC(=O)c2ccco2)c2ccccc2n1C,3.8%,-28.7,-0.5,-3.3,3.9,.,.,.,.,-69.7
CC1CC(C)CN(C(=O)COC(=O)c2ccc([N+](=O)[O-])o2)C1 (stereo unspecified),.,.,0.2,-10.2,.,-1.1,8.3,-6.7,-19.6,.
Cc1ccn2c(NCc3ccc4c(c3)OCO4)c(-c3ccc(O)cc3)nc2c1,?,-1.7,-1.1,-19.3,1.6,5.8,12.1,-2.0,2.2,-22.9
CCc1ccc(C(=O)CN(C#N)c2nc(C)cc(C)n2)cc1,-3.5%,8.5,-0.2,9.4,-2.2,.,.,.,.,-7.0
COc1ccc(CCCCCCOCc2ccccc2)cc1,.,.,-0.7,5.6,.,1.7,11.3,-0.6,0.3,.
SMILES,Vif TR-FRET,T cruzi repl,Bfl-1 A1 inh,Beta apoptosis,RanGTP-Impb inh,Ecoli rRNA inh,Ecoli rRNA inh OD600,Ecoli rRNA inh RFP,MLL AF4-AF9 inh,Calb FLC
O=C(Nc1ccccc1)c1ccccc1CSc1ccccc1,.,6.7,1.1,-5.1,5.4,-23.5,-30.6,-12.1,-2.4,4.0
Cc1ccc(S(=O)(=O)n2nccc2-c2c(-c3ccc(Cl)cc3)noc2C)cc1,-2.5%,27.4,-0.8,9.2,-1.5,1.2,2.9,1.1,-10.1,-0.3
COc1ccc(S(=O)(=O)N2CCCC2CNC(=O)C(=O)Nc2ccc(C)cc2)cc1 (stereo unspecified),-2.2%,3.7,-0.5,-2.3,-1.4,-6.3,-7.9,-0.6,-27.3,-2.8
O=c1c2ccccc2[nH]c(=S)n1Cc1cccs1,?,-4.1,-0.1,17.5,-1.5,3.8,1.1,-1.6,-2.0,?
O=C(NCc1cccnc1)/C(=C\c1ccc(-c2ccc(Cl)c(Cl)c2)o1)S(=O)(=O)c1ccccc1,?,45.4,-0.3,104.7*,-2.4,-21.4,-16.0,25.0,-0.3,?
O=C(O)c1ccc2c(=O)n3c(nc2c1)/C(=C/c1cccc(O)c1)CC3,-1.1%,-10.5,-1.2,0.9,-3.4,0.0,-1.5,0.6,13.8,-4.5
COc1ccc(CNCc2ccc([N+](=O)[O-])cc2)cc1OC,.,3.0,3.5,.,?,16.5,11.8,2.7,-3.5,-1.3
COc1ccc(S(=O)(=O)N2CCN(C)CC2)cc1NC(=O)c1ccccc1F,.,-19.1,0.2,-7.4,8.4,2.3,3.4,-1.4,-1.9,1.5
O=C(c1ccc(F)cc1)N1CCN(C2CCCCC2)CC1,.,11.6,0.6,-5.3,0.8,2.4,8.1,0.4,0.6,-1.1
CCCS(=O)(=O)N1CCN(C(=O)c2cccs2)CC1,-4.0%,-15.6,0.0,-3.1,-1.5,.,.,.,.,-5.4
O=C(COc1ccc(/C=N/NC(=O)CSCc2ccc([N+](=O)[O-])cc2)cc1)NCc1ccco1,.,-1.0,0.3,-3.2,?,6.7,6.4,-2.0,0.4,-6.7
